VACV mCherry inh: inhibitors of vaccinia virus infection (mCherry reporter signal); Vaccinia virus mCherry reporter infection, fluorescence; about a quarter of the inactives have no number; Potency, µM (series often up to 36.5 µM), for the others: at the highest dose activity change, negative = inhibition, usual class: inhibitors; 0.63% of 310,000 active; active = well fitted inhibition curve with a large enough effect; inconclusive = small, poorly fitted or top-dose-only effect; inactive = no such curve, though single readings can be large or run the other way; tested in A549 cells; further: nearly all actives have a fitted effect of over 35% in size; inactives centre near -10
Vaccinia Venus: vaccinia inhibition (Venus reporter); 0.46% of 330,000 active; Vaccinia virus Venus reporter expression, fluorescence; AID 720580; Potency, µM (highest dose often 36.5 µM), inactives show at the highest dose activity change, negative = inhibition, usual class: inhibitors; active means well fitted inhibition curve with a large enough effect; inconclusive means small, poorly fitted or top-dose-only effect; inactive means no such curve, though single readings can be large or run the other way; tested in A549 cells; further: nearly all actives have a fitted effect of over 30% in size; inactives centre near -10
Starred values were filed as active, the others as inactive; i = inactive; ? = inconclusive; nt = no result given; [ ] = another dose, or the depositor's remark. On the % scale 0 is the no-effect control and ±100 the full control effect; potency means the concentration at half of the fitted maximal effect.

1) Cc1ccc(OCC(=O)Nc2cc(C(=O)O)cc(C(=O)O)c2)cc1C
2) CCc1cc2c(=O)n(Cc3ccco3)c(SCC(=O)NC3CCS(=O)(=O)C3)nc2s1 (centres undefined)
3) CCOC(=O)c1nc2c(ccc3ccccc32)cc1C
4) COc1ccc(CCCC(=O)Nc2ccc(F)cc2)cc1
5) Nc1ccncc1
6) CCOc1ccc(S(=O)(=O)N(CC)CC(=O)NCc2cccnc2)cc1C
Assay by compound	1	2	3	4	5	6
VACV mCherry inh	5%	0%	-12%	-8%	-13%	-18%
Vaccinia Venus	5%	11%	-14%	-9%	-10%	-21%

7) COc1cc2c(cc1OC)CN(CC(=O)Nc1ccc(F)cc1)CC2
8) COc1ccccc1C(=O)NC(CCSC)C(=O)NNC(=O)c1ccccc1C (centres undefined)
9) O=C(NCCc1ccccc1)C1CCN(S(=O)(=O)c2cccnc2)CC1
10) Cc1ccc(S(=O)(=O)N(C)C)cc1NC(=S)NNC(=O)C(N)=O
11) CCNc1nc(Cl)nc(-c2cn(-c3ccccc3)c3ccccc23)n1
12) O=C(CCCCN1CCCCC1)c1ccccc1
Assay by compound	7	8	9	10	11	12
VACV mCherry inh	-10%	-20%	-21%	12%	i	-2%
Vaccinia Venus	-9%	-14%	-4%	1%	-22%	10%

13) O=C(N/N=C/c1ccc(OC(=O)c2ccccc2Cl)cc1)c1ccc(O)cc1
14) Cc1c(C(=O)N2CCCC2)oc2c1-c1[nH]ncc1CC2
15) CCC(=O)c1c[nH]c(C(=O)NCc2ccco2)c1
16) S=C(c1ccc(-c2cccc(Cl)c2)o1)N1CCCCC1
17) COc1cccc(CN2CCN(Cc3ccc4cccc(F)c4n3)CC2CCO)c1 (centres undefined)
18) Cc1cc(NC(=O)Cn2nc(C(F)(F)F)c3c2CCCC3)no1
Assay by compound	13	14	15	16	17	18
VACV mCherry inh	i	14%	nt	0%	i	nt
Vaccinia Venus	-13%	-8%	-6%	9%	-8%	17%

Full records, looked up by structure:
Profile of `CCC(=O)c1c[nH]c(C(=O)NCc2ccco2)c1` : VACV mCherry inh = nt; Vaccinia Venus = -6%
Profile of `Cc1c(C(=O)N2CCCC2)oc2c1-c1[nH]ncc1CC2` : VACV mCherry inh = 14%; Vaccinia Venus = -8%
Profile of `COc1cccc(CN2CCN(Cc3ccc4cccc(F)c4n3)CC2CCO)c1` (centres undefined) : VACV mCherry inh = i; Vaccinia Venus = -8%

Next section.
19) COc1ccccc1OCCNC(=O)CNC(=O)c1ccc(Cl)c(Cl)c1
20) CCc1nn2c(NCCOC)cc(C)nc2c1-c1ccc(F)cc1
21) COc1ccc(C2C=C(c3ccccc3)Nc3nc(NC(=O)/C=C/c4ccc(Cl)cc4)nn32)cc1 (centres undefined)
22) CCC/C=N/NC(=O)c1cc(Br)ccc1O
23) O=C(O)C(O)(c1ccccc1)C(O)c1ccccc1 (centres undefined)
24) CCCNC(=O)C[C@@H]1C[C@H]2c3cc(NC(=O)c4ccc5c(c4)OCO5)ccc3O[C@H]2[C@@H](CO)O1
Assay by compound	19	20	21	22	23	24
VACV mCherry inh	-16%	i	?	-3%	-12%	-10%
Vaccinia Venus	-14%	-11%	-24%	-18%	-7%	-18%

25) O=C1c2ccccc2S(=O)(=O)c2cc(C(=O)N3CCN(c4ccc(Cl)cn4)CC3)ccc21
26) O=C(NCc1ccccn1)C(=O)Nc1cc2c3c(c1)CC(=O)N3CCC2
27) c1ccc(-c2noc(-c3ccc4ccccc4c3)n2)cc1
28) O=C(CCNS(=O)(=O)c1cccs1)NCc1ccco1
29) CC1CCCN(C(=O)c2cc3c(=O)n(C)c4ccccc4c3s2)C1 (centres undefined)
30) COc1cc(C(=O)NCc2nnc(SCC(=O)Nc3cccc(C(F)(F)F)c3)o2)cc(OC)c1OC
Assay by compound	25	26	27	28	29	30
VACV mCherry inh	-11%	i	-12%	-6%	-15%	-24%
Vaccinia Venus	1%	-5%	-8%	-5%	-5%	-7%

31) Nc1c(N(Cc2ccco2)C(=O)c2ccccc2F)c(=O)[nH]c(=O)n1Cc1ccccc1
32) Cc1ccccc1NC(=O)C(=O)NCCCN1CCOCC1
33) CCC(=O)C1=C(c2ccc(F)cc2)N(C(=O)CC)n2c(nnc2C2CCCCC2)S1
34) O=C(N/N=C/c1ccc(O)c2ncccc12)c1cccc(Br)c1
35) O=C(Nc1cccc(Cl)c1)c1csc([C@@H]2O[C@H](CO)[C@H](O)[C@H](O)[C@H]2O)n1
36) Cc1ccc2c(c1)C(Cc1nc3ccccc3c(=O)n1-c1ccc(Br)cc1)C(=O)N2 (centres undefined)
Assay by compound	31	32	33	34	35	36
VACV mCherry inh	i	i	?	?	i	-24%
Vaccinia Venus	-19%	2%	?	?	-10%	-16%

37) NC(=O)CC(NC(=O)Cc1cccc2ccccc12)c1ccc(N2CCN(c3ccc(F)cc3)CC2)c([N+](=O)[O-])c1 (centres undefined)
38) COc1ccccc1CNC(=O)C[C@@H]1C[C@H]2c3cc(N(C)C)ccc3O[C@H]2[C@H](CO)O1
39) O=C(CCN1C(=O)c2ccccc2S1(=O)=O)N1CCN(c2cccc(Cl)c2)CC1
40) CCCCn1c(O)c(C(C)=Nc2c(C)n(C)n(-c3ccccc3)c2=O)c(=O)[nH]c1=O
41) CCOC(=O)Cc1cn2c(=O)cc(CSCC(=O)Nc3ccc(C)c(C)c3)nc2s1
42) Nn1c(SCC(=O)Nc2ccccc2F)nnc1-c1cccs1
Assay by compound	37	38	39	40	41	42
VACV mCherry inh	-24%	i	i	i	-8%	-13%
Vaccinia Venus	-28%	-6%	-4%	-9%	-6%	-4%

43) Cc1ccccc1C(=O)NC(CC(C)C)C(=O)Nc1ccc(F)c([N+](=O)[O-])c1 (centres undefined)
44) COc1ccc(N2CCN(C(=O)CSc3ncn[nH]3)CC2)cc1
45) COCc1nnc(NC(=O)CS(=O)(=O)c2ccc(C)cc2)s1
46) CC(C)(C)NC[C@H](O)COc1cccc2c1CCCC2=O
47) COc1ccc(-c2nc3ccc(Cl)cn3c2Cc2ccc(C)cc2)cc1OC
48) COc1ccc(C(=O)c2cc([N+](=O)[O-])ccc2N2CCN(C)CC2)cc1
Assay by compound	43	44	45	46	47	48
VACV mCherry inh	-16%	-15%	10%	0%	5%	?
Vaccinia Venus	-14%	-6%	8%	-9%	-4%	-27%

49) COC(=O)c1ccc(/C=C2/C(=O)Oc3ccccc32)cc1
50) CN(Cc1ccccc1)C(=O)CSc1c2c(nc3ccc(Cl)cc13)CCCC2
51) Cc1ccc(NS(=O)(=O)c2cccc(C(=O)O)c2)c(C)c1
52) Cc1ccc(-c2nc(=O)[nH]c3ccc(Br)cc23)cc1
53) Cc1c(-c2cc(C(=O)O)no2)cnn1C
54) O=C1[C@H](Cc2ccccc2)NCC=CC[C@@H](c2ccco2)N1Cc1ccccc1
Assay by compound	49	50	51	52	53	54
VACV mCherry inh	-6%	-8%[7.34 µM]	?	i	2%	i
Vaccinia Venus	-16%	-10%[7.34 µM]	-14%	-14%	-1%	-17%

55) COc1ccccc1C(=O)COC(=O)Cn1c(C)csc1=O
56) COc1ccc(-c2nn(-c3ccccc3)cc2/C=C2/SC(=S)N(CCC(=O)O)C2=O)cc1
57) CC(C)(C)NC(=O)CN(Cc1ccc2c(c1)OCO2)C(=O)CCC(=O)Nc1nccs1
58) CN(CC(=O)Nc1ccccc1-c1ccccc1)Cc1ccccc1Cl
59) Cc1cccc(C)c1NC(=O)c1sc(Cl)nc1C
60) COc1ccc(OC)c(NC(=O)COC(=O)C2CCCCC2)c1
Assay by compound	55	56	57	58	59	60
VACV mCherry inh	0%	i	i	-1%	-23%	i
Vaccinia Venus	-9%	-14%	-7%	-6%	-19%	-19%

Another view of some results above:
57	CC(C)(C)NC(=O)CN(Cc1ccc2c(c1)OCO2)C(=O)CCC(=O)Nc1nccs1
  VACV mCherry inh = i
  Vaccinia Venus = -7%

39	O=C(CCN1C(=O)c2ccccc2S1(=O)=O)N1CCN(c2cccc(Cl)c2)CC1
  VACV mCherry inh = i
  Vaccinia Venus = -4%

50	CN(Cc1ccccc1)C(=O)CSc1c2c(nc3ccc(Cl)cc13)CCCC2
  VACV mCherry inh = -8%[7.34 µM]
  Vaccinia Venus = -10%[7.34 µM]

(list continues)
61) Cc1noc(NC(=O)c2ccccc2Cl)c1C#N
62) CS(=O)(=O)N1CCC(C(=O)Nc2ccc(Cl)c(C(F)(F)F)c2)CC1
63) COc1ccc(C(=O)N(Cc2ccccc2)c2ccc(C)cc2)cc1S(=O)(=O)N1CCOCC1
64) CS(=O)(=O)Nc1ccc(-c2cncc3nccn23)cc1
65) COc1ccc2[nH]c(-c3cccc(F)c3)cc(=O)c2c1
66) O=c1c(-c2ccccc2)nc(-c2ccccc2)cn1O
Assay by compound	61	62	63	64	65	66
VACV mCherry inh	nt	-18%	-2%	5%	?	nt
Vaccinia Venus	-14%	-20%	-15%	-5%	?	-19%

67) Cc1nnc2c(NCCC(C)C)nc3ccccc3n12
68) O=C(CCN1CCN(c2ccc(Cl)cc2)CC1)Nc1ccccc1F
69) COC(=O)CC(NC(=O)C1CC1)c1ccc2c(c1)OCO2 (centres undefined)
70) Cn1c(O)c(C=NCCN2CCN(C(=O)Nc3ccccc3)CC2)c(=O)n(C)c1=O
71) O=C(Nc1ccc(S(=O)(=O)N2CCOCC2)cc1)c1ccc(Cl)s1
72) CN(C)c1oc(/C=C/c2ccc(F)cc2)nc1C#N
Assay by compound	67	68	69	70	71	72
VACV mCherry inh	-13%	nt	-11%	-1%	-6%	-14%
Vaccinia Venus	-1%	-19%	-16%	-14%	-20%	-9%

73) O=C1CC/C=C\C[C@@H](CC(=O)N(CCO)Cc2ccccc2)C(=O)NC[C@@H](c2ccccc2)O1
74) CCc1c(C)sc(NC(=O)C2CCCCC2C(=O)O)c1C(N)=O (centres undefined)
75) C=C(C(=O)c1ccccc1)C(NC(C)(C)C)c1ccccc1 (centres undefined)
76) CCN(CCCNC(=O)CNC(=O)Cn1cnc2ccccc2c1=O)c1ccccc1
77) O=C(O)CCn1ncc2ccccc2c1=O
78) O=C(COC(=O)c1cccnc1Nc1ccccc1F)NCCN1C(=O)CSC1=O
Assay by compound	73	74	75	76	77	78
VACV mCherry inh	-10%	-13%	18µM*	nt	-1%	-12%
Vaccinia Venus	-8%	-5%	?	-11%	4%	-10%

Another view of some results above:
Results follow in this order: VACV mCherry inh	Vaccinia Venus
73	O=C1CC/C=C\C[C@@H](CC(=O)N(CCO)Cc2ccccc2)C(=O)NC[C@@H](c2ccccc2)O1
→ -10%	-8%
74	CCc1c(C)sc(NC(=O)C2CCCCC2C(=O)O)c1C(N)=O (centres undefined)
→ -13%	-5%

The list continues:
79) CCS(=O)(=O)Nc1ccc(C(=O)c2ccccc2)cc1
80) CCN1C(=O)/C(=C2/Sc3ccc(OC)cc3N2C)SC1=Nc1cccc(O)c1
81) O=C(CSc1nnc(CNC(=O)c2ccccc2F)n1-c1ccccc1)Nc1ccccc1F
82) COCCCNC(=O)c1cc2n(n1)CCCN(Cc1ccc(C)cc1)C2=O
83) c1ccc(C(c2nnnn2Cc2cccs2)N2CCN(C3CCCC3)CC2)cc1 (centres undefined)
84) CN(C)c1ccc(NC(=O)COC(=O)c2ccc3c(c2)OCO3)cc1
Assay by compound	79	80	81	82	83	84
VACV mCherry inh	-7%	?	i	i	-25%	i
Vaccinia Venus	0%	-15%	-12%	1%	-23%	1%

85) O=C(CN1CCCCC1)N1c2ccccc2Oc2ccccc21
86) Nc1ccc2nc(SCC(=O)c3ccccc3)sc2c1
87) CC(=O)Nc1ccc(NC(=O)Cc2ccc(S(=O)(=O)N3CCCCC3)cc2)cc1
88) CCC(=O)Nc1nc2ccc3nc(C)sc3c2s1
89) CC(C)C1S/C(=N/N=C/c2ccco2)NC1=O (centres undefined)
90) Nc1cc(=O)[nH]c(SCC(=O)Nc2cccc(S(=O)(=O)N3CCCCCC3)c2)n1
Assay by compound	85	86	87	88	89	90
VACV mCherry inh	nt	-3%	-16%	-12%	-14%	-2%
Vaccinia Venus	-12%	-15%	-13%	-14%	-6%	-12%

91) O=C(c1ccc(=O)oc1)N1CCC(C(O)(c2ccccc2)c2ccccc2)CC1
92) COc1nc(N(C)C)nc(N2CC(=O)N(CCNS(=O)(=O)c3ccc(C)cc3)C2=N)n1
93) COc1cc(-c2nc(SCC(=O)Nc3ccc(C)cc3)c(-c3ccc(F)cc3)[nH]2)cc(OC)c1OC
94) CC1CCN(C(=O)C2CCN(S(=O)(=O)c3cc(Cl)ccc3Cl)CC2)CC1
Assay by compound	91	92	93	94
VACV mCherry inh	-7%	-19%	-4%	2%
Vaccinia Venus	-9%	-7%	?	-4%

Compound activity: PubChem, National Center for Advancing Translational Sciences (NCATS)
